High-throughput results deposited in PubChem BioAssay by several laboratories.
Ecoli growth – E. coli growth inhibition | Escherichia coli growth, OD600, 23 h; hits give low values | OD600 absorbance (concentration not given with the values) | 330,000 tested, 0.21% active | AID 1053175;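 active means OD600 absorbance below the run mean of sample wells minus 3.6 SD, in any replicate, cut at about 0.56 in these data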;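 further: stock transfer was 300 nL into about 60 µL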
ALR H2O2 inh – blocks human ALR sulfhydryl oxidase activity; P55789; purified ALR, DTT oxidation, H2O2 HRP-luminol luminescence; inhibition, % (no concentration beside the values); 290,000 tested, 3.8% active; AID 485317;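 active means mean and each replicate at 75% or more; inconclusive means only one of the two met; inactive means neither met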;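 further: stock transfer was 7.5 nL into about 7.5 µL; 0% = neutral wells and 100% = wells with inactivated enzyme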
Target sequence (P55789 whole entry, looked up): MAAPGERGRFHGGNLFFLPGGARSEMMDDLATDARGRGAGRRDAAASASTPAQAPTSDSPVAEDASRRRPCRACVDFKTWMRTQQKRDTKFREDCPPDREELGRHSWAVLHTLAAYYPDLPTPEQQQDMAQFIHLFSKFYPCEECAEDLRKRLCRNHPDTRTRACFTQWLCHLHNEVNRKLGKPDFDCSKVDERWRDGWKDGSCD
MLL AF4-AF9 inh – inhibitors of human MLL-AF4/AF9 interaction; inhibition, % at 10 µM; 350,000 tested, 0.47% active; P42568; AlphaScreen, biotin-AF4 peptide binding to FLAG-AF9;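 active means every replicate reaching a set inhibition limit, whatever the replicate mean, cut at about 25% in these data; inconclusive means mean inhibition reaches that limit but some replicates miss it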;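 further: 0% = plate neutral control median and 100% = total signal loss; the record names both 10 and 1 µM as test concentration; the first replicate is given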
Vif A3G – HIV-1 Vif–A3G interaction blockers – biochemical, TR-FRET, GST-Vif 1-94, biotin-A3G peptide, dose response retest, primary screen (AID 1117319) | TR-FRET GST-Vif / biotin-A3G peptide binding; higher % means a stronger effect; test concentration not given here; strong numbers were not always called active | inhibition, %; hits with a dose series show IC50 in µM | 260,000 tested, 0.57% active;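 active means above the screen mean plus three standard deviations and confirmed in dose response; inconclusive means results disagree or hit not tested in dose response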;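 further: Vif residues 1-94 fused to GST binding biotinylated APOBEC3G peptide 110-148; 0% = full assay without inhibitor and 100% = GST in place of GST-Vif; retest series ran down from 100 µM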
Ecoli rRNA inh – inhibits bacterial ribosomal RNA function over humanized ribosomes. AID 720706. GFP signal change (wild-type ribosome), % (no concentration beside the values). 350,000 tested, 1.6% active. E. coli WT GFP vs humanized-ribosome RFP mutants, fluorescence, 24 h; hits give low values; DMSO median 0, no signal -100;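 active means significant combined selectivity score with lowered wild-type GFP, culture density cut under 30%, mutant RFP and density less affected; inactive means any of these conditions unmet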; further: one replicate is shown; some compounds called inactive have numbers as strong as hits
HNF4A DNA FP – change in binding of human HNF4 alpha to DNA | P41235 | 360,000 tested, 0.3% active | HNF4a-FITC DNA binding, fluorescence polarization, 1 h | activity change, % at 10 µM; in the data active means activity change above about 30%, passing the limit was not always enough;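 further: controls were the assay level and a saturating level of protein; the project sought stronger binding though the title names inhibitors; some compounds called inactive have numbers as strong as hits; positive values seem to mean higher polarization but the record does not say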
Target sequence (P41235 whole entry, looked up): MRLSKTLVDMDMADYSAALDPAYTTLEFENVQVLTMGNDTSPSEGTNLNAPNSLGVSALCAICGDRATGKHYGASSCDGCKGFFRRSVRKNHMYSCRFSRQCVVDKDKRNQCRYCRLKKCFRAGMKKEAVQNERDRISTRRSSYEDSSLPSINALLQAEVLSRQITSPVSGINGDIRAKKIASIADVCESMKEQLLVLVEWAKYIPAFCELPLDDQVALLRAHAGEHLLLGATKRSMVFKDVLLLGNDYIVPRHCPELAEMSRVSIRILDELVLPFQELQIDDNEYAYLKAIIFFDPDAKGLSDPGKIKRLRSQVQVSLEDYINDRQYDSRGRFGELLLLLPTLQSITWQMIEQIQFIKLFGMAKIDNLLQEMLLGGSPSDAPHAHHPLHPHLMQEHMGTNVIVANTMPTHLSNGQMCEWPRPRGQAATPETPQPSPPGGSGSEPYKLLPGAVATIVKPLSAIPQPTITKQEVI
FGF22 binding – binders of recombinant human FGF22 by thermal shift; SYPRO orange fluorescence; percent of sucrose octasulfate shift, DMSO zero; calls only at 9.99 µM; 340,000 tested, 1.5% active; Q9HCT0; AID 651658;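 active means melting point raised past a set limit in the mean and every replicate; inconclusive means no clear call; three in four hits are not shown here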
Target sequence (Q9HCT0 whole entry, looked up): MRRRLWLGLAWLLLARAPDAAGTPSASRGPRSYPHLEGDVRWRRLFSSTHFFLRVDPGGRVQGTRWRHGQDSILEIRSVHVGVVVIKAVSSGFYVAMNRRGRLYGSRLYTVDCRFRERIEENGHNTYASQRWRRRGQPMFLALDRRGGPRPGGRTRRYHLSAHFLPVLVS
Ecoli rRNA inh OD600 – further read-out of Ecoli rRNA inh, marked with its call; OD600 change, %; measured here: OD600 growth;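 optical density of the mix in the first replicate; 0 = DMSO median and -100 = no signal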
Ecoli rRNA inh RFP – recorded beside Ecoli rRNA inh, whose call it bears; RFP signal change, %; measured here: RFP humanized mutant strains;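 first replicate; 0 = DMSO median and -100 = no signal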
Active calls of the source: *; i = inactive; ? = inconclusive; · = not tested or not shown; + = active, no number; & = joins results of further samples. The list is partial, so the mix of outcomes need not match the whole.

SMILES	Ecoli growth	ALR H2O2 inh	MLL AF4-AF9 inh	Vif A3G	Ecoli rRNA inh	Ecoli rRNA inh OD600	Ecoli rRNA inh RFP	HNF4A DNA FP	FGF22 binding
COc1ccc(OCC(=O)N2CCN(S(=O)(=O)c3ccccc3[N+](=O)[O-])CC2)cc1	0.71	-3	3.2	30%	-8	-10	0.6	3.4	i
Oc1ccccc1/C=N/n1c(COc2ccccc2)n[nH]c1=S	·	6	-4.0	1%	6	3	-5.8	-3.3	i
O=S(=O)(NCC1CCCO1)c1cc(Cl)ccc1Br (stereo not drawn)	0.68	2	·	-3%	·	·	·	-0.1	·
CCCCCOc1cccc(C2C(C(=O)c3cccs3)=C(O)C(=O)N2CCN2CCOCC2)c1 (stereo not drawn)	0.68	6	·	·	-10	-27	15	2.7	i
CCN(C(=O)COC(=O)c1ccc(Cl)nc1)C1CCS(=O)(=O)C1 (stereo not drawn)	0.69	·	-0.6	-4%	8	9	0.9	-2.8	i
CN(C)CCCNC(=O)c1cccc(-c2ccc3nccn3c2)c1	·	·	-4.2	·	2	-11	5.2	-0.9	i
CC(C)c1cc(C(N)=O)c(NC(=O)C2CCC2)s1	0.73	97*	-13	?	-24*	-14*	-5.8*	6.6	i
O=C(C1CC1)N1CC2(C1)[C@H](c1ccccc1)[C@@H](CO)N2Cc1ccc(Cl)cc1	·	·	0.7	·	0	-6	0.3	·	+
C[N+](C)(C)CCOc1ccc([N+](=O)[O-])cc1	0.71	-5	-0.2	1%	11	10	-1.4	-1.1	i
Cc1cc(C)cc(C(=O)NN2CCN(C)CC2)c1	0.67	12	-2.9	·	13	8	-1.5	3.0	i
COc1cc(C(=O)N/N=C(\Cc2ncc[nH]2)c2ccccc2)cc(OC)c1OC	·	20	0.1	-8%	-32*	-26*	1.2*	-0.3	i
C[C@H](CO)N1C[C@H](C)[C@@H](CN(C)C(=O)c2ccc3c(c2)OCO3)Oc2cc(/C=C/c3ccccc3)ccc2S1(=O)=O	·	·	6.3&4.6&4.4	·	-4&-3	-5&1	-1.8&-2.1	2.6	i
COc1ccc(C(=O)NC2CCSc3ccccc32)cc1 (stereo not drawn)	0.73	-6	-0.6	3%	12	5	0.5	0.7	i
COC(=O)CNC(c1ccccc1)c1cc(Br)ccc1NC(=O)OCc1ccccc1 (stereo not drawn)	0.71	-1	·	-2%	·	·	·	0.2	·
C/C(=C\C(=O)O)CC(=O)O	0.75	-12	·	10%	·	·	·	2.0	·
CCn1c(COc2ccccc2OC)nnc1SCC(=O)NC1CCCC1	0.69	-3	-0.9	·	7	7	-0.6	0.5	i
Cc1c(Cl)cccc1NC(=O)Nc1ccn(C)n1	0.68	2	·	-7%	·	·	·	-3.8	·
CC(NC(=O)COC(=O)c1cccc(S(=O)(=O)N2CCCC2)c1)c1ccccc1 (stereo not drawn)	0.65	·	0.6	-19%	-1	-3	2.6	4.7	i
COc1cc2nc(CN3CCOCC3)n(CC(=O)N3CCCCCC3)c(=O)c2cc1OC	0.68	1	1.4	7%	10	6	3.4	-0.9	i
C/C(=C\c1ccc(C(=O)O)cc1)c1ccc2c(c1)C(C)(C)CCC2(C)C	·	21	0.7	·	17	9	5.1	-4.5	i
C[C@H]1CN([C@@H](C)CO)C(=O)c2cccc(NC(=O)Nc3ccc(C(F)(F)F)cc3)c2O[C@H]1CN(C)Cc1ccc(Oc2ccccc2)cc1	·	·	2.0	·	-1	-2	0.8	·	i
CCN(CC)CCNC(=O)c1ccc(NC(=O)c2ccc(F)cc2F)cc1	0.63	-2	-2.1	11%	11	12	-0.1	0.0	i
CN(Cc1ccccc1)C(=O)COC(=O)CCNC(=O)c1ccccc1Cl	0.69	-1	1.4	-3%	6	4	-3.5	-1.2	i
Fc1ccc(CN2CCCN(Cc3nc(-c4ccc5c(c4)OCO5)no3)CC2)cc1	0.66	2	5.1	-3%	-7	-13	2.2	-3.1	i
COc1cc(SC)ccc1C(=O)Nc1ccccn1	0.68	·	-0.4	?	-10	9	4.6	-1.8	i

Later entries
SMILES	Ecoli growth	ALR H2O2 inh	MLL AF4-AF9 inh	Vif A3G	Ecoli rRNA inh	Ecoli rRNA inh OD600	Ecoli rRNA inh RFP	HNF4A DNA FP	FGF22 binding
CCc1ccccc1OCC(=O)OCC(=O)N1CC(=O)Nc2ccccc21	0.68	-1	-0.2	-6%	6	-3	0.6	-0.1	i
C[C@@H]1CN([C@@H](C)CO)S(=O)(=O)c2ccc(C3=CCCC3)cc2O[C@H]1CN(C)C(=O)CN(C)C	·	·	-1.1	·	3	4	-2.1	·	i
Cc1c(NC2=CC(=O)CCC2)c(=O)n(-c2ccccc2)n1C	0.67	-2	-0.5	·	5	6	-3.8	4.6	i
CCOC(=O)N1CCN(C(=O)c2noc3c2COc2ccccc2-3)CC1	0.69	-4	-1.1	·	-3	2	2.7	4.3	i
COc1ccc2nc(NC(=O)Cc3ccc(OC)c(S(=O)(=O)N4CCOCC4)c3)sc2c1	0.68	-8	·	2%	·	·	·	0.2	·
CN(C)C(=O)C[C@H]1C[C@@H]2c3cc(NC(=O)Nc4ccc(C(F)(F)F)cc4)ccc3O[C@@H]2[C@@H](CO)O1	·	·	6.3	·	-1	-35	3.7	·	i
Cc1occc1-c1nnc(SCC(=O)N2CCCCC2)o1	0.71	5	-11	30%	7	2	-0.6	-1.1	i
CC(=O)c1c(C)[nH]c(C(=O)N2CCN(c3ccccn3)CC2)c1C	0.68	-3	0.1	-4%	-7	11	15	-0.9	i
O=C(CSc1nc(-c2ccccc2)c(-c2ccccc2)[nH]1)NCc1ccco1	0.74	59	·	1%&-1%	·	·	·	-2.4	·
CCOC(=O)C1CCCN(C(=O)c2cccc(OC(F)(F)F)c2)CC1 (stereo not drawn)	·	·	-1.4	·	3	9	-0.6	0.5	i
CC1Sc2ccc(S(=O)(=O)N3CCC(C(=O)N(C)Cc4ccccc4)CC3)cc2NC1=O (stereo not drawn)	0.69	-17	0.4	·	5	-3	12	0.4	i
O=C(NC(=S)NNS(=O)(=O)c1ccccc1)c1cccnc1	0.67	59	-9.9	32%	8	10	-1.2	-2.7	i
NCCCCCc1nnc(SCc2ccc(Cl)c(Cl)c2)o1	0.64	-6	·	7%	·	·	·	-0.6	·
C#CCOC(=O)CCC(=O)NCCc1ccccc1	0.76	8	·	6%	·	·	·	-2.8	·
Cc1ccc(NC(=O)c2ccc3c(c2)nnn3C)cc1	0.68	-2	-1.3	13%	2	5	-0.8	1.1	i
COc1ccc(N2CCN(c3cc(C)c4ccccc4n3)CC2)cc1	0.72	-3	2.9	-4%	-5	4	0.8	-4.0	i
Cc1noc(C)c1NC(=O)Nc1ccc2c(c1)C(=O)N([C@@H](C)CO)C[C@@H](C)[C@@H](CN(C)Cc1ccc(Oc3ccccc3)cc1)O2	·	·	9.8	·	4	-16	6.1	·	i
COc1ccc2c3c(n(C)c2c1)[C@H](CO)N(Cc1ccccc1F)CC31CN(C(=O)C2CCCC2)C1	·	·	-4.1	·	-12	-46	25	·	i
COc1ccccc1CNC(=O)C[C@H]1C[C@H]2c3cc(NC(=O)C4CCOCC4)ccc3O[C@H]2[C@@H](CO)O1	·	·	-3.2	·	2	6	-3.2	·	i
CCCNC(=O)C[C@H]1CC[C@@H]2[C@H](COC[C@@H](O)CN2C(=O)CC)O1	·	·	-1.8	·	0	5	3.4	·	i
Cc1c(NC(=O)C(=O)N/N=C/c2cccs2)c(=O)n(-c2ccccc2)n1C	·	-3	4.4	15%	16	7	0.1	-1.0	i
CCOC(=O)C1=CN(CC)S(=O)(=O)NC1c1ccccc1 (stereo not drawn)	0.7	·	-2.1	1%	14	10	1.9	-3.5	i
COC(=O)c1ccc(OC(=O)c2ccccc2F)cc1	0.66	5	0.4	-5%	7	-13	-6.8	·	i
O=C(COC(=O)c1ccc(O)cc1O)c1ccc2c(c1)OCCO2	0.7	9	-13	·	-13	-20	0.8	-3.1	i
Cc1ccccc1-n1nc2c(c1NC(=O)c1cccc(F)c1)CS(=O)C2 (stereo not drawn)	0.72	-1	-3.2	1%	0	2	-1.1	3.5	i

Look-ups from the list.
For HNF4A DNA FP, Cc1c(NC(=O)C(=O)N/N=C/c2cccs2)c(=O)n(-c2ccccc2)n1C reads -1.0
For Ecoli rRNA inh, CCCNC(=O)C[C@H]1CC[C@@H]2[C@H](COC[C@@H](O)CN2C(=O)CC)O1 reads 0
For Ecoli rRNA inh, CCOC(=O)N1CCN(C(=O)c2noc3c2COc2ccccc2-3)CC1 reads -3

Next records follow:
SMILES	Ecoli growth	ALR H2O2 inh	MLL AF4-AF9 inh	Vif A3G	Ecoli rRNA inh	Ecoli rRNA inh OD600	Ecoli rRNA inh RFP	HNF4A DNA FP	FGF22 binding
COC(=O)C1=C(C)N=C2SCCC(=O)N2C1c1ccc(OC(=O)c2ccco2)cc1 (stereo not drawn)	0.77	·	·	0%	·	·	·	-0.9	·
COc1cc(S(=O)(=O)NCCCN2CCOCC2)ccc1-n1cnnn1	0.7	-8	-1.7	11%	19	11	-0.5	0.8	i
CCS(=O)(=O)N1CCN(S(=O)(=O)c2ccccc2)CC1	0.72	·	·	1%	·	·	·	-7.4	·
CCOc1cccc(C(=O)Nc2ccccc2C(=O)N2CCN(C)CC2)c1	0.68	1	1.9	·	10	18	5.7	-3.0	i
CCCC#Cc1ccc([C@H]2[C@H]3CN(CC4CC4)CCCCN3[C@H]2CO)cc1	·	·	6.5	·	4	12	4.1	·	i
O=C(O)CSC1CC(=O)N(c2cccc(Cl)c2)C1=O (stereo not drawn)	0.68	16	·	-1%	·	·	·	1.4	·
COc1ccc(NC(=S)NN2C(C)CCCC2C)cc1 (stereo not drawn)	0.67	-3	3.8	·	9	9	1.1	1.9	i
CSc1ccccc1NC(=O)Nc1ccc(F)c(Cl)c1	0.65	-2	·	-6%	·	·	·	3.4	·
CNC[C@@H]1Oc2cc(C#CC3(O)CCCC3)ccc2S(=O)(=O)N([C@@H](C)CO)C[C@H]1C	·	·	-0.9	·	4	-2	-1.5	·	i
O=C(NNC(=O)C1CC=CCC1)c1cccc(Br)c1 (stereo not drawn)	0.68	2	0.5	·	·	·	·	2.0	i
CN(Cc1ccccc1)C(=O)c1ccc(NC(=O)Cc2cccc(NC(=O)C3CCCN(C(=O)CCc4ccccc4)C3)c2)cc1 (stereo not drawn)	0.71	-4	-3.5	·	-3	7	11	0.4	i
CC1CC(C)CN(C(=O)C2CCN(S(=O)(=O)c3ccc4c(c3)CC(C)N4C(=O)C3CC3)CC2)C1 (stereo not drawn)	0.65	-2	1.4	·	-3	-27	7.4	-5.0	i
CCCCCn1c(SCCC(C)C)nc2c1c(=O)[nH]c(=O)n2C	0.74	·	·	-6%&-10%	·	·	·	-1.0	·
CCOC(=O)c1cnn(-c2ccccc2)c1N	0.58	-1	·	-1%	·	·	·	-0.7	·
O=S(=O)(Nc1nc2ccccc2nc1NCC1CCCO1)c1cccc(Cl)c1 (stereo not drawn)	0.71	87*	-12	·	-24*	-16*	4.6*	1.8	i
Cc1ccc2c(CN(C)Cc3cccc(F)c3)cc(=O)oc2c1	0.64	-1	0.2	-5%	-27	-21	-19	-1.9	i
CCOC(=O)C1=C(C)NC(=S)NC1c1ccc(OCC(=O)N2CCCCC2)cc1 (stereo not drawn)	0.67	1	-4.4	·	-4	4	-2.1	3.5	i
C[C@H](CO)N1C[C@H](C)[C@H](CN(C)CC2CC2)Oc2c(NC(=O)NC3CCCCC3)cccc2C1=O	·	·	3.6	·	2	0	-1.1	·	i
